TRPML1 blocker: blocks the human TRPML1 channel; Q9GZU1; TRPML1-inducible cells, Ca2+ dye fluorescence, FDSS; active compounds read low; inhibition of EC80 agonist-evoked calcium signal; activity change, negative = inhibition, % (no concentration beside the values); 0.02% of 390,000 active; AID 624415; in the data active means activity change below about -50%; inconclusive means about -30% to -50%; inactive means above about -30%;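 further: stimulus is agonist 54-4 at its EC80 concentration; on the % scale 0 is the no-effect control and ±100 the full control effect; compound concentration not given in the record; the text of the record puts the active cut at -80%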
Target sequence (Q9GZU1 whole entry, looked up): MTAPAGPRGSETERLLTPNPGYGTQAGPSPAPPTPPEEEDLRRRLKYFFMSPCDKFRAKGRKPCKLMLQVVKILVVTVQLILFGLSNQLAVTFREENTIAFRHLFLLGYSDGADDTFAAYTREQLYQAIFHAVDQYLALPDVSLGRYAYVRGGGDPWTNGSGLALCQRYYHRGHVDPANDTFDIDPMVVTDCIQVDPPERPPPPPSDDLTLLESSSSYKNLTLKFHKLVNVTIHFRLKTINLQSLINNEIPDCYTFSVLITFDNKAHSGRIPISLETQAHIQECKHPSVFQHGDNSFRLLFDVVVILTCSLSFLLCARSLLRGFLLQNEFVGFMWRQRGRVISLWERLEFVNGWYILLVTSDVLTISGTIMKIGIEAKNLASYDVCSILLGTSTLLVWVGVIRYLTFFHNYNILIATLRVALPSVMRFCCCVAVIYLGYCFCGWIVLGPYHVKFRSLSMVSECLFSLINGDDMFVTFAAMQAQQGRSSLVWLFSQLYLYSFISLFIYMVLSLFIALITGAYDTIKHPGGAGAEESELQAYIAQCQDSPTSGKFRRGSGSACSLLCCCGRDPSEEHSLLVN
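Calcium fluorescence in TRPML1-DL cells induced overnight with Tet: a 110 s read after compound pin addition, then a 110 s antagonist read after challenge with 54-4 at 4 uM final (EC80).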
ClpP mod: qHTS Assay for Activators of ClpP; ATP-dependent Clp protease proteolytic subunit (Bacillus subtilis (strain 168)), P80244; Potency, µM (highest dose often 57.5 µM), for the others: at the top dose activity change, negative = active; 1.9% of 340,000 active; purified B. subtilis ClpP, FRET peptide cleavage, 20 min; active = well fitted falling curve with a large enough effect; inconclusive = small, poorly fitted or top-dose-only effect; inactive = no such curve, though single readings can be large or run the other way; further: potency means the concentration at half of the fitted maximal effect; the source files actives as falling curves though it sought activators and does not explain the sign; nearly all actives have a fitted effect of over 65% in size; many hits overshoot -100%
Target sequence (P80244 whole entry, looked up): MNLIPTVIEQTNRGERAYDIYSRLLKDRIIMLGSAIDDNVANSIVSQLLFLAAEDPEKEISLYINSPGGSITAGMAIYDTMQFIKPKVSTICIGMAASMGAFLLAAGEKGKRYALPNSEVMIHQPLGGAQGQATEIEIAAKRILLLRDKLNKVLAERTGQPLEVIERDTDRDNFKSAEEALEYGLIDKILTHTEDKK
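Purified B. subtilis ClpP, 10 microg/mL final in Tris/HCl pH8 with KCl, BSA, glycerol and Tween-20, cleaved an Abz/nitrotyrosine-quenched decapeptide. Fluorescence (ex 320, em 430) was read at 0 and 20 min at room temperature. Delta was normalized to 5.8 microM ADEP and DMSO/no-enzyme controls.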
gsp ag: agonists of gsp mutant (McCune-Albright syndrome). gsp mutant cells, cAMP HTRF, 30 min; control for the full effect not named in the record. Potency, µM (doses to about 76.9 µM), for inactives: top-dose activation (cAMP increase), hits mostly activators. 0.13% of 340,000 active; active = well fitted activation curve with a large enough effect; inconclusive = small, poorly fitted or top-dose-only effect, or another doubt; inactive = no such curve, though single readings can be large or run the other way; cell line not stated here;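 further: phosphodiesterase inhibitor Ro 20-1724 added with compounds to block cAMP breakdown; potency means the concentration at half of the fitted maximal effect; nearly all actives have a fitted effect of over 60% in size; about a fifth of the inactives were tested at one dose only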
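Cells in DMEM/10% FBS with G418 were pretreated with compounds in DMSO plus […] (300 uM stock) for 30 min at 37C. cAMP was measured by HTRF (cAMP-d2 plus anti-cAMP antibody-K) after 30 min at room temperature.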
gsp antagonist: gsp mutant antagonism | gsp-mutant cells, cAMP HTRF, 30 min; control for the full effect not named in the record | Potency, µM (highest dose often 76.9 µM), without a hit: at the top dose activity change, negative = inhibition, most hits filed as inhibitors | 0.4% of 340,000 active | AID 624288; active = falling curve of any shape with a large fitted effect; inconclusive = falling curve, mostly with a smaller effect; inactive = flat or rising curve; cell line not stated here;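 further: intracellular cAMP measured with PDE inhibitor Ro 20-1724 present during compound exposure; potency means the concentration at half of the fitted maximal effect; on the % scale 0 is the no-effect control and ±100 the full control effect; nearly all actives have a fitted effect of over 65% in size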
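HTRF cAMP read-out (cAMP-d2 plus anti-cAMP antibody-K in lysis buffer, 30 min RT). Before lysis, cells are exposed to compounds with […] for 30 min at 37C in DPBS containing Ca/Mg, BSA and Tween 20.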
Menin MLL FP FL: inhibitors of human menin-MLL interaction, wild-type MLL peptide. AID 1766. 290,000 tested, under 10 active. FP activity change, % at 61.4 µM. Fluorescence polarization, fluorescein-MLL peptide displacement from menin; inconclusive = falling polarisation curve, or a change in total fluorescence; inactive = total fluorescence flat and polarisation flat or rising; no compound was filed as active; the % refers to the polarisation; negative = inhibition;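 further: % of control where 0% means no effect; inhibitors lower the polarisation; unlabelled MLL peptide was the positive control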
TRPML1 ag: agonists of human TRPML1 channel | Q9GZU1 | TRPML1-expressing cells, Ca2+ dye fluorescence, FDSS; host cell line not named in the record; reference of the full effect not given here | activation, % (concentration not given with the values) | 0.12% of 410,000 active | AID 624414; in the data active = activation above about 50%; inconclusive = about 30% to 50%; inactive = below about 30%; further: 0% is about no effect; the text of the record puts the active cut at 80%
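Calcium fluorescence on an FDSS kinetic reader gave the read-out. Tet-induced TRPML1-DL cells were plated overnight, dye-loaded (Ca8 with quencher, 45-90 min, room temperature, dark), then read 110 s after compound addition, and again 110 s after 4uM final 54-4 (EC80).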
* hit, by the source's call; ? = inconclusive; . = not tested or not shown; & = joins results of further samples; [ ] = another dose, or the depositor's remark. Compounds were not picked by outcome, and some 2.1% of all compounds hit somewhere here.

Under each structure: ClpP mod	TRPML1 blocker	TRPML1 ag	gsp ag	Menin MLL FP FL	gsp antagonist
#1 CN(C(=O)C1CCOC1)c1nnc(-c2ccccn2)s1 (stereo unspecified)
  285%	4	-0.6	10%	3.4	13%
#2 N#C/C(=C\c1cn(Cc2ccccc2F)c2ccccc12)C(=O)NCc1ccco1
  2.7%	-7	5.0	?	5.3	31%
#3 Cc1ccc(N(CC(=O)NCCSCc2ccco2)S(=O)(=O)c2ccc(C)cc2)cc1
  -0.5%	5	3.5	-8%	2.5	-3%
#4 O=[N+]([O-])c1ccc(C(=Nc2cccc3ccccc23)N2CCOCC2)cc1
  -1.7%	13	0.1	-22%	3.4	?
#5 CC(NC(=O)CCCc1ccccc1)c1ccncc1 (stereo unspecified)
  -2.9%	1	0.1	27%[15.4 µM]	-1.5	3%
#6 CCC(=O)Nc1cccc(NC(=O)CSc2nc3c(c(=O)n(C)c(=O)n3C)n2C)c1
  .	7	0.5	26%[15.4 µM]	.	4%
#7 Cc1ccccc1SCC(=O)NC1CCOC1=O (stereo unspecified)
  -2.7%	2	-0.5	2%	0.2	4%
#8 CC(C)NC(=S)NNc1nc2ccccc2s1
  .	4	0.7	1%[15.4 µM]	-2.3	12%
#9 COc1ccc(C2=NN(c3ccccc3)C(c3cn(CCC(=O)O)nc3-c3ccccc3)C2)cc1 (stereo unspecified)
  .	9	2.3	18%[15.4 µM]	0.8	-14%
#10 O=[N+]([O-])c1ccccc1O[C@@H]1O[C@H](CO)[C@H](O)[C@H](O)[C@H]1O
  .	-6	0.0	4%[15.4 µM]	4.6	10%
#11 COc1ccc(C(=O)N2CCCCCC2)cc1OC1CCN(C(C)=O)CC1
  0.9%	19	0.8	?	-3.5	0%
#12 CCN1CCN(Cc2cc(=O)oc3cc4c(cc23)CCC4)CC1
  -23%	1	2.8	-8%	5.2	11%
#13 Nc1c(C(=O)CSc2nccn2-c2cccc(F)c2)c(=O)[nH]c(=O)n1C1CC1
  -0.3%	16	0.0	29%	.	2%
#14 CCOc1ccccc1NC(=O)Cn1c(=O)n(CCCC(=O)NCCOC)c(=O)c2cc(OC)c(OC)cc21
  -16%	21	0.2	.	.	.
#15 C=CCNC(=O)NC(=O)CSc1nc2cc([N+](=O)[O-])ccc2n1-c1cccc(C(F)(F)F)c1
  .	15	-0.8	?	2.0	-4%

Full records, quoted from the list.
CC(NC(=O)CCCc1ccccc1)c1ccncc1 (stereo unspecified) in the list: ClpP mod: -2.9%; TRPML1 blocker: 1; TRPML1 ag: 0.1; gsp ag: 27%[15.4 µM]; Menin MLL FP FL: -1.5; gsp antagonist: 3%
O=[N+]([O-])c1ccc(C(=Nc2cccc3ccccc23)N2CCOCC2)cc1 in the list: ClpP mod: -1.7%; TRPML1 blocker: 13; TRPML1 ag: 0.1; gsp ag: -22%; Menin MLL FP FL: 3.4; gsp antagonist: ?

Going on with the list.
Under each structure: ClpP mod	TRPML1 blocker	TRPML1 ag	gsp ag	Menin MLL FP FL	gsp antagonist
#16 COc1ccc(NC(=O)c2oc3cc(C)c(C)cc3c2C)c(OC)c1
  0.3%	-17	-0.1	0%	4.6	5%
#17 CCc1cc(C=NC2CCCCC2)c(O)s1
  3.7%	1	0.0	-10%	-0.4	-2%
#18 Cc1ccc(N(Cc2cccs2)C(=O)c2ccc(OC(C)C)cc2)cc1
  -1.0%	-13	2.1	.	.	.
#19 Oc1c(-c2cc(-c3ccco3)[nH]n2)ccc2ccccc12
  -8.0%	5	-0.1	18%	1.7	-14%
#20 Cc1nc2scc(C)n2c(=O)c1S(=O)(=O)NCC1CCN(Cc2ccc(Cl)cc2)CC1
  3.5%	-9	0.4	11%	1.0	11%
#21 Cc1cc(C)c(C(N)=O)c(NCCc2ccccc2)n1
  35µM*	-11	-0.3	-22%	5.7	2%
#22 COc1ccccc1N(C)S(=O)(=O)c1ccc(Cl)c(C(=O)Nc2ccncc2)c1
  2.2%	-9	0.5	-3%	.	-40%
#23 Cc1cccc(OCC(=O)Nc2ccc(S(=O)(=O)N(Cc3ccccc3)c3ccccc3)cc2)c1
  -1.0%	19	-0.6	.	.	.
#24 O=C(COC(=O)c1ccccc1O)NCc1ccc2c(c1)OCO2
  ?	11	2.4	-40%[inhibitor]	.	1%
#25 Cc1cccc(C(C)(C)C)c1OCCn1ccnc1
  -0.4%	-3	1.7	-13%	1.3	?
#26 C/C(=N/NC(=O)CNC(=O)COc1ccccc1)c1ccco1
  .	-8	1.4	-2%[15.4 µM]	4.2	11%
#27 Cc1cc(C)c([C@@H]2C[C@H]3CN(C4CCCC4)C(=O)[C@]34CCCN24)c(-n2cccn2)c1
  .	10	0.7	0%[15.4 µM]	-1.1	-2%
#28 Cc1ccc(OCC(O)CN2CCOCC2)cc1 (stereo unspecified)
  -0.9%	.	.	-13%	1.9	6%
#29 O=C(OCC#CCSc1nnc(-c2ccccc2)o1)c1ccco1
  1.2%	-2	0.4	-1%	2.8	-15%
#30 O=C(CN1C(=O)c2cccc3cccc1c23)NCc1ccc2c(c1)OCO2
  -4.7%	18	0.5	12%	-1.1	-7%
#31 C=CCn1c(CSCc2ccc(Cl)cc2)nnc1SCC(=O)NCc1ccccc1
  0.3%	5	1.5	-1%	-1.6	?
#32 COC(=O)C1=C(C)NC(=O)C1(Nc1nccs1)C(F)(F)F (stereo unspecified)
  -2.3%	-10	-0.2	-37%[inhibitor]	-1.4	7%
#33 CCOC(=O)C(Cc1ccccc1)NC(=O)Cn1nnc(-c2ccccc2)n1 (stereo unspecified)
  -1.4%	-20	4.8	21%	0.1	-10%
#34 O=C(COc1ccc(F)cc1)N(Cc1ccco1)C1CCS(=O)(=O)C1 (stereo unspecified)
  -2.8%	27	-0.1	3%	.	3%
#35 COc1ccc(S(=O)(=O)N2CCCCCC2)cc1C(=O)N(C)CCOc1ccc(Cl)cc1
  .	36	2.3	-32%[15.4 µM]	.	?
#36 CCCN1CCC(=O)N(CCOc2ccccc2)CC1
  -0.4%&0.1%	16	-0.4&-0.4	.	-0.9	9%
#37 CCOC(=O)c1ccc(NC(=O)c2nn(CC)cc2Br)cc1
  -3.2%	15	-0.7	-34%	2.2	-23%
#38 COc1ccc(NC(=O)CSc2nc(-c3cccs3)cc(C(F)(F)F)n2)cc1OC
  25%	-15	-0.5	.	.	.
#39 Cc1onc(NC(=O)NC(=O)c2ccccc2F)c1Br
  1.4%	7	0.8	-38%[inhibitor]	.	11%
#40 COc1ccc(S(=O)(=O)NCC2CCCO2)cc1NC(=O)c1ccccc1F (stereo unspecified)
  .	14	2.7	-4%	-3.2	-2%
#41 CC1c2ccsc2CCN1S(=O)(=O)c1cccs1 (stereo unspecified)
  2.2%	0	-0.5	?	-0.3	-1%
#42 Cc1ccc(N2/C(=N/c3nc(C)cc(C)n3)NC(=O)CC2C(=O)O)cc1 (stereo unspecified)
  -0.5%	1	-0.4	-12%	3.5	-11%
#43 CC(=O)CC(=O)Nc1ccc2ccccc2c1
  -8.4%	8	0.0	-2%	2.8	-7%
#44 COc1ccc(-n2c(SCC(=O)Nc3nccs3)nc3sc4c(c3c2=O)CCN(C)C4)cc1
  -9.2%	-1	-1.1	-23%	12	25%
#45 O=c1c2[nH]c3ccccc3c2ncn1Cc1ccco1
  ?	14	4.3	-25%	1.4	3%
#46 CC1(C(=O)OCC(=O)NCc2ccc(Cl)cc2)CC1(Cl)Cl (stereo unspecified)
  -4.5%	7	0.4	-33%[inhibitor]	.	13%
#47 Cc1cc(NC(=O)/C=C/c2cccc(F)c2)n(-c2nc3ccccc3[nH]2)n1
  11%	-10	0.6	-14%	0.2	12%
#48 COc1ccc(CCNC(=O)CCc2c(C)nc3c(c(C)nn3-c3ccc(C)c(C)c3)c2C)cc1OC
  -10%	9	-1.3	.	.	.
#49 O=C(Nc1nc2n(n1)C(c1ccc(F)cc1)C=C(c1ccccc1)N2)c1ccc(Cl)cc1 (stereo unspecified)
  -5.4%	5	0.9	.	.	.
#50 O=C(CSc1nc2ccc(Nc3nc(N4CCCC4)nc(N4CCCC4)n3)cc2s1)NCc1ccco1
  -6.1%	13	4.1	-18%	8.8	?
#51 O=C(Nc1ccccc1C(=O)NC(Cc1ccccc1)C(=O)O)c1ccco1 (stereo unspecified)
  -13%	1	0.0	-5%	-10	6%
#52 CCn1c2ccccc2c2cc(NC(=O)c3ccc(C)c([N+](=O)[O-])c3)ccc21
  -4.8%	28	2.0	-32%[inhibitor]	2.8	3%
#53 Cc1noc(C)c1CSCC(=O)Nc1cc(S(=O)(=O)N2CCOCC2)ccc1OCC(F)(F)F
  1.6%	19	0.0	?	.	4%
#54 CC(=O)N(Cc1ccco1)c1nc(C(=O)Nc2ccc(Cl)cc2)c(C)s1
  -3.8%	15	0.0	8%[15.4 µM]	11	-10%
#55 O=C(NCc1cccc(Cl)c1)C1CCC(=O)N(CCN2CCOCC2)C1 (stereo unspecified)
  1.7%	39	0.6	-85%[inhibitor]	-6.4	9%
#56 Cc1sc2nc(-c3ccc(Br)cc3)oc(=O)c2c1C
  10%	11	0.1	56%[15.4 µM]	-5.4	?
#57 O=C(c1ccco1)n1nc(-c2ccc(Cl)cc2)nc1NCc1ccc(F)cc1
  0.7%	-8	4.4	.	.	.
#58 CN(C)CCn1c2c(c(SCC(=O)NCc3ccccc3)nc1=O)CCCC2
  -4.2%	24	2.5	-29%	.	10%
#59 O=C(OCC(=O)N(C1CCCCC1)C1CCCCC1)c1ccc(Cl)nc1
  -2.0%	4	5.9	29%	.	-3%
#60 CCCCCC(=O)NC(=S)Nc1ccc(N2CCOCC2)cc1
  -1.7%	?	0.0	-2%	-0.7	1%
#61 CCc1cccc2c(C(=O)COC(=O)c3ccccc3)c[nH]c12
  -22%	0	-0.4	14%[15.4 µM]	-0.7	-11%
#62 C#CCOCCOCCOCCNc1nc(N2CCN(C(=O)C([C@@H](C)O)n3cc([C@@H](N)CCCCN)nn3)CC2)nc(N2CCN(C(=O)[C@H](CCCCN)n3cc([C@@H](N)CC(N)=O)nn3)CC2)n1 (stereo partly specified)
  2.3%	-4	-0.4	.	.	2%
#63 NC(=O)c1sc2cc(C(F)(F)F)cnc2c1-c1cccs1
  2.9%	-12	-1.1	6%	0.8	7%
#64 COc1ccc(N=CC2=C(O)CC(C)(C)CC2=O)cc1
  0.5%	15	-1.2	42%	0.3	8%
#65 CCC[C@@H]1CCCO[C@@](C(=O)NCc2ccccn2)(C(F)(F)F)C1
  0.9%	-5&-4	1.3&0.9	-1%	-8.0	1%
#66 O=C(O)C1(Nc2ccccc2)CCCC1
  .	-2	-0.6	?	.	2%

High-throughput results from PubChem.
